Screening results deposited in PubChem BioAssay by University of Pittsburgh Molecular Library Screening Center.
WNV_NS2B-NS3_inh: WNV NS2B-NS3 proteinase inhibition; WNV NS2B-NS3 protease, fluorogenic substrate Ex360/Em465; hits give low values; z-score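 (tested at a level between 10 and 100 µM)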; 65,000 tested, 0.18% active; AID 577;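 active = z-score at -3 or under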;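 also: score is relative to mean and spread of the compound wells of a plate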
Starred values were filed as active, the others as inactive. An excerpt; count on the stated rates, not on these rows.

SMILES WNV_NS2B-NS3_inh
Cn1c(=O)c2c(ncn2CCO)n(C)c1=O 0.43
CC[C@]1(O)C[C@@H]2CN(CCc3c([nH]c4ccccc34)[C@@](C(=O)OC)(c3cc4c(cc3OC)N(C)[C@H]3[C@@](O)(C(=O)OC)[C@H](OC(C)=O)[C@]5(CC)C=CCN6CC[C@]43[C@@H]65)C2)C1 0.01
